# Compound activity (PubChem BioAssay)
# D2 ag – agonists of human D2 dopamine receptor (beta-arrestin); P14416; actives 0.084% (n = 360,000); AID 624465; DiscoveRx PathHunter D2 beta-arrestin, luminescence, 90 min; 100% = 57 uM dopamine signal; activation, % (concentration not given with the values); in the data active = activation above about 40%; inconclusive = about 15% to 40%; inactive = below about 15%; also: compound concentration not given in the record; the text of the record calls up to 30% inactive
#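 Agonist mode: compounds alone added to overnight-plated D2 PathHunter cells for 90 min at 37 C, with 57 uM final dopamine (EC100) defining full response. Beta-arrestin recruitment detected by chemiluminescent reagent, read after 1 h at ambient temperature.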
# Six1-Eya2 inh – inhibitors of human Six1/Eya2 interaction; activity change, % (test concentration not listed); Q15475+O00167; AlphaScreen GST-Six1/His-Eya2 binding, biochemical; stronger effect = lower value; control for the full effect not named in the record; actives 0.56% (n = 360,000); in the data active = activity change below about -65%; inconclusive = about -30% to -65%; inactive = above about -30%; also: % is scaled to controls: 0 for no effect and ±100 for the full control effect; compound concentration not given in the record
#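 Homogeneous AlphaScreen proximity assay pairing GST-Six1 with His-tagged Eya2 (added as 5X mix: 250 nM and 500 nM) in 50 mM Tris pH 8.0, 300 mM NaCl, 1 mM TCEP. Glutathione donor and nickel acceptor beads; 1 h, 37 °C, dark.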
# TRPV1 potentiator – potentiators of human vanilloid receptor 1 (TRPV1); Q8NER1; TRPV1-expressing cells, Fluo-8 calcium influx, capsaicin EC20 potentiation; host cell line not named in the record; control for the full effect not named in the record; potentiation, % at 8.33 µM; actives 0.02% (n = 320,000); AID 540277; active means potentiation above 80%; inconclusive means 30% to 80%; inactive means below 30%; also: 0% is about no effect
# Target sequence (Q8NER1 whole entry, looked up): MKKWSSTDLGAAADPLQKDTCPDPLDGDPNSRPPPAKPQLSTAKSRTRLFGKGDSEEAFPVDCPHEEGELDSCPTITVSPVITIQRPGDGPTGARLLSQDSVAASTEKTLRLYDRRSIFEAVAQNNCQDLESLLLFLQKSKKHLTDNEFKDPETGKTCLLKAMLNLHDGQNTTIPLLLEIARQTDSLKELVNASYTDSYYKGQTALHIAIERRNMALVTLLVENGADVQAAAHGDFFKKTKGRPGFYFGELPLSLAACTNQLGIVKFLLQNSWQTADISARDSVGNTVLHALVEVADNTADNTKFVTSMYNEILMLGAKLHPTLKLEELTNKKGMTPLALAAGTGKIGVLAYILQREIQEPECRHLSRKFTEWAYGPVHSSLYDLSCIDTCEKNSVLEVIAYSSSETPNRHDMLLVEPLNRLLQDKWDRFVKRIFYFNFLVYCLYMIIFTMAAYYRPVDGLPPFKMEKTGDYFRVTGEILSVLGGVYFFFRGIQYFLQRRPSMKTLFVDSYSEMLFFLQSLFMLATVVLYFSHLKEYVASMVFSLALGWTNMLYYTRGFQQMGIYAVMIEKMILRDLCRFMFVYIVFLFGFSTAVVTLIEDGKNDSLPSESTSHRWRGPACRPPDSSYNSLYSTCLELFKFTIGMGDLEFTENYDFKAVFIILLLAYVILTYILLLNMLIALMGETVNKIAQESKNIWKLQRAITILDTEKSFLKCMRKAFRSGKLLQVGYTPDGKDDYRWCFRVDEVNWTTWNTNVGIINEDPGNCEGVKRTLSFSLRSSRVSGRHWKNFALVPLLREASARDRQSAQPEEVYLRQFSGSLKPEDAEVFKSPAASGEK
#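 Cells expressing TRPV1 were dye-loaded with Fluo-8 and read kinetically: 10 s baseline, 3 min after compound (agonist portion), then 2 min after EC20 capsaicin (allosteric enhancer portion). Calcium-bound dye fluorescence at 480/520 nm.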
# Sfp PPTase inh – Sfp phosphopantetheinyl transferase inhibition; Potency, µM, inactives show max response, negative = inhibition, actives largely listed as inhibitors; AID 1490; actives 3.5% (n = 310,000); Biochemical Sfp PPTase activity, qHTS; Q9F4F7; active = well fitted inhibition curve with a large enough effect; inconclusive = small, poorly fitted or top-dose-only effect, or another doubt; inactive = no such curve, though single readings can be large or run the other way;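 also: the enzyme is Sfp with the accession as filed and its product quenches rhodamine fluorescence; potency is read from the fitted curve at half-maximal effect; 0% = enzyme reaction without inhibitor and -100% = no enzyme wells; top concentration of the series not given in the record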
#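 Compounds were incubated with enzyme (final 15 nM) for 15 min at room temperature before substrate addition started the reaction. Fluorescence at 525 nm excitation, 598 nm emission was recorded immediately and after 30 minutes.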
# D2 PAM – potentiates the human D2 dopamine receptor allosterically | potentiation, % (no concentration beside the values) | DiscoveRx D2 beta-arrestin cells, luminescence, 90 min; 100% = 57 uM dopamine signal | P14416 | actives 0.23% (n = 360,000) | AID 624464; active = potentiation of 50% or more; inconclusive = 30% to 50%; inactive = 30% or less;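 also: compound concentration not given in the record; tested on top of an EC20 dose of dopamine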
#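 PathHunter D2 cells, attached overnight at 37 deg C, received compound in DMSO plus dopamine at EC20 (50 nM final) for 90 min at 37 deg C. Beta-arrestin recruitment was read as luminescence after 1 h with detection reagent at ambient temperature.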
# PINK1 modulator – changes PINK1 expression | Potency, µM (titrated, usually from 76.6 µM), for the others: top-dose activation (PINK1 increase), most hits filed as activators | actives 0.2% (n = 410,000) | PINK1 immunofluorescence, high-content cytometry, 24 h; active = well fitted activation curve with a large enough effect; inconclusive = small, poorly fitted or top-dose-only effect; inactive = flat fitted curve, though single readings scatter; cell line not stated here;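 also: potency is read from the fitted curve at half-maximal effect; % of control where 0% means no effect; nearly all actives have a fitted effect of over 65% in size; a mitochondrial uncoupler was the plate control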
#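 PINK1 protein level read as immunofluorescence by microplate cytometer in a fixed, stained stable cell line after 24 h exposure to five compound concentrations, with CCCP as control.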
# CtBP-E1A inh – CtBP/E1A binding inhibition. activity change, % (no concentration beside the values). AlphaScreen GST-E1A/His-CtBP binding, 1536-well; stronger effect = lower value; control for the full effect not named in the record. actives 0.49% (n = 340,000); in the data active means activity change below about -65%; inconclusive means about -30% to -65%; inactive means above about -30%; also: % is scaled to controls: 0 for no effect and ±100 for the full control effect; compound concentration not given in the record
#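 Steps: dispense buffer (Tris pH 8.0, NaCl 300 mM, TCEP 1 mM, BSA, Tween 20); add 5X protein mix (GST-E1A, His-CtBP, 125 nM each); pin 23 nL compound; 2 h at 37 °C, dark; add 5X beads (50 ug/mL); 1 h; read.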
# The depositor's hits bear a star; ? = inconclusive; nt = no result given; & = joins results of further samples; [ ] = remark or other dose. Rows were taken by chance (roughly 3.7% active in at least one column).
SMILES,D2 ag,Six1-Eya2 inh,TRPV1 potentiator,Sfp PPTase inh,D2 PAM,PINK1 modulator,CtBP-E1A inh
CCO[C@@H]1OC(C(=O)N2CCCCCCC2)=C[C@H](c2ccc(C(F)(F)F)cc2)[C@H]1CCCO,-2.3,-1.3,-8.6,0.8%,-10.3,-1.1%,-18.4
CCOC(=O)N1CCN(C(=O)CNC(=O)c2ccc(Br)cc2)CC1,0.8,3.6,-1.8,5.0%,-10.1,-2.5%,5.4
CCOC(=O)C1CCCN(CC(=O)Nc2cccc(C(C)=O)c2)C1 (stereo unspecified),-1.2,1.8,-5.6,?,-12.1,-1.0%,-10.6
CC(=O)NC(Cc1ccccc1)C(C)=O (stereo unspecified),3.6,7.0,-2.1,-1.9%,-0.1,0.0%,12.1
Clc1ccc(NC2=NCCC2)cc1Cl,-1.7,9.9,2.1,19.6%,-28.2,2.3%,3.7
O=C(CNC(=O)c1ccccc1)NCC(=O)OCC(=O)c1ccccc1,-2.9,7.0,2.9,10.1%,-5.1,-1.0%,1.8
CCOc1ccc(-n2c(COc3ccccc3)nnc2SCC(N)=O)cc1,-0.8,2.1,-2.1,18.1%,-13.9,0.3%,2.7
CC(=O)N1CCCc2cc(S(=O)(=O)N3CCC(C)CC3)ccc21,1.6,2.0,-1.0,1.4%,11.9,0.5%,7.1
c1ccc(C2[C@H]3CN(CC4CCCCC4)[C@H](c4ccccc4)C34CC2(c2cccnc2)C4)cc1 (stereo partly specified),-0.5,-10.8,?,-4.0%&-3.9%,-10.7,?,-1.1
CCOc1ccc(S(=O)(=O)n2cc(F)c(=O)[nH]c2=O)cc1[N+](=O)[O-],-0.8,4.7,7.2,-16.3%,2.9,1.0%,nt
CCC(C)(C)NC(=O)C1CCN(S(=O)(=O)c2cccs2)CC1,-5.6,5.9,-3.9,5.2%,-0.9,1.5%,4.5
Cc1ccc(SCCC(=O)NNC(=O)c2ccccc2F)cc1,0.3,-2.6,nt,nt,-3.8,2.6%,7.9
Cc1ccc(SCc2cc(=O)[nH]c(/N=C(\N)Nc3ccc(C)c(C)c3)n2)cc1,-2.2,4.9,-14.7,10.7%,2.7,5.1%[38.3 µM],18.9
CCCCN(C(=O)/C=C/c1ccc(OC)cc1)C1CCS(=O)(=O)C1 (stereo unspecified),-2.7,2.4,-15.1,nt,12.1,0.6%,-5.2
COc1cc(NC(=O)c2ccc(-c3cn[nH]c3)c3ccoc23)cc(OC)c1OC,12.4,-10.1,nt,nt,11.1,-0.7%,-6.1
O=C(CNC(=O)c1ccco1)Nc1cccc(Cl)c1,-6.1,2.2,18.2,0.3%,-3.9,2.5%,1.9
CCc1ccc(OCC(=O)NC(=S)Nc2ccc(C(C)=O)cc2)c(Br)c1,-1.8,3.7,-4.2,5.7%,11.8,nt,2.5
COC(=O)N1CC=CC1(C)C(=O)NCc1cc(F)cc(C(F)(F)F)c1 (stereo unspecified),-2.4,3.4,0.1,8.1%&21.5%,-10.4,0.6%,6.0
O=C(CCC1CCCCC1)Nc1nncs1,0.7,-9.8,-1.5,12.7%,-5.5,-0.7%,-2.7
O=C(c1cccc(Cl)c1)N(Cc1cccs1)C1CCS(=O)(=O)C1 (stereo unspecified),-3.6,25.6,-5.5,-1.6%,-14.5,-0.4%,0.0
O=C(CN1C(=O)C2CC=CCC2C1=O)NC1CCCc2ccccc21 (stereo unspecified),-3.8,2.5,4.9,-20.4%,-9.2,-3.8%,9.3
Cc1cc2nc(SC(C)C(=O)O)[nH]c2cc1C (stereo unspecified),-1.1,0.8,-6.7,23.4%,0.1,0.6%,9.5
CC(=O)Nc1ccc(NC(=O)c2ccccc2Sc2ccc([N+](=O)[O-])cc2Cl)cc1,3.9,-10.5,17.0,-22.0%,7.2,3.4%,5.2
CN1c2ccsc2/C(=N/Nc2ccc(F)cc2)CS1(=O)=O,7.0,-5.0,2.1,-13.0%,?,14.0%,-12.7
OCCC1CN(Cc2ccc(F)cc2)CCN1CCc1ccccc1 (stereo unspecified),-2.0,-8.3,?,17.4%,-1.6,2.1%,8.3

# In the list so far, three contain a thiophene ring, fused or not.
SMILES,D2 ag,Six1-Eya2 inh,TRPV1 potentiator,Sfp PPTase inh,D2 PAM,PINK1 modulator,CtBP-E1A inh
CCC(C)(C)NC(=O)C1CCN(S(=O)(=O)c2cccs2)CC1,-5.6,5.9,-3.9,5.2%,-0.9,1.5%,4.5
O=C(c1cccc(Cl)c1)N(Cc1cccs1)C1CCS(=O)(=O)C1 (stereo unspecified),-3.6,25.6,-5.5,-1.6%,-14.5,-0.4%,0.0
CN1c2ccsc2/C(=N/Nc2ccc(F)cc2)CS1(=O)=O,7.0,-5.0,2.1,-13.0%,?,14.0%,-12.7

# Next section
SMILES,D2 ag,Six1-Eya2 inh,TRPV1 potentiator,Sfp PPTase inh,D2 PAM,PINK1 modulator,CtBP-E1A inh
O=C1/C(=C/c2ccccc2)CN(C(=O)CCN2CCOCC2)C/C1=C\c1ccccc1,-5.1,5.3,nt,nt,-23.9,-6.9%,-20.5
Cc1ccc(C)c(NC(=O)CSc2nnc(CNC(=O)c3ccco3)n2C)c1,-2.9,10.4,-1.7,13.5%,-6.3,0.7%,4.7
CCCn1c(SC(C)C(=O)NCC2CCCO2)nc2sc(CC)cc2c1=O (stereo unspecified),-2.0,6.7,-23.5,3.4%,12.8,3.7%,0.2
N#CCC(=O)N1CCn2c1nc1ccccc12,0.8,-0.1,4.8,11.7%,-11.3,-0.2%,11.4
NS(=O)(=O)c1ccc(NC(=O)CN2C(=O)CCC2=O)cc1,-1.0,1.7,1.0,3.7%,-7.2,1.2%,nt
C#CCOCCOCCOCCNc1nc(N2CCN(C(=O)Cn3cc(CCO)nn3)CC2)nc(N2CCN(C(=O)[C@H](C(C)C)n3cc(CCO)nn3)CC2)n1,-0.5,7.5,12.0,-11.6%,-51.4,0.7%,-0.7
NC(=S)NN=CCn1cc([N+](=O)[O-])c(=O)[nH]c1=O,1.5,-3.3,nt,nt,0.4,-3.2%,-7.5
CCc1ccc(NC(=S)Nn2cnnc2)cc1,-6.0,14.3,-1.2,14.1µM*,-12.7,0.5%,7.0
O=C1C2C3CCC(C3)C2C(=O)N1CNc1ccccc1 (stereo unspecified),1.9,1.4,-2.5,6.2%,-3.5,1.6%,7.2
CCOc1c(Br)cc(CNCc2cccs2)cc1OC,1.4,13.4,-12.5,9.1%,-10.1,-1.1%,0.4
COc1cc2[nH]c(=S)n(NC(=O)CC(C)C)c(=O)c2cc1OC,0.3,-1.6,2.3,?,-1.1,-0.2%[38.3 µM],0.0
Cc1noc(C)c1C(=O)N1CCCC(C)(C(=O)NS(=O)(=O)C2CC2)C1 (stereo unspecified),1.3,5.7,nt,nt,-10.3,-0.1%,6.8
CC(C)(C)CN1C(=O)C(=O)NC[C@H]1Cc1cccc2ccccc12,-1.9,3.6,5.1,4.6%,3.4,-0.4%,6.3
Cn1cc([N+](=O)[O-])c(C(=O)Nc2ccc(-c3nc4ccccc4o3)cc2)n1,0.4,-6.4,-1.5,-3.5%,-14.1,-0.7%,nt
C=CCn1c(-c2cccc(S(=O)(=O)N3CCOCC3)c2)n[nH]c1=S,-5.6,5.8,19.2,nt,-2.4,5.1%,3.5
NC(=O)c1ccc(NC(=O)c2ccc3c(c2)OCO3)cc1,0.5,-14.8,-13.1,25.9%,2.4,nt,-11.2
COc1cccc(CNC(=O)COC(=O)C23CC4CC(CC(Cl)(C4)C2)C3)c1,2.3,7.7,nt,nt,0.5,2.4%,2.1
CCN(CC)CCNC(=O)Cn1cnc2sc(C)c(S(=O)(=O)N3CCN(c4ccccc4OC)CC3)c2c1=O,2.7,4.5,9.1,16.3%,-3.8,-3.3%&0.1%,2.5
CC(C)(C)OC(=O)N1CCC[C@@H]1C(=O)N1CCC(C(=O)O)CC1,0.7,14.8,8.6,2.7%,-10.6,1.8%,-1.1
COc1cccc(S(=O)(=O)N(C)C[C@H]2OCc3cnnn3CCCC(=O)N([C@@H](C)CO)C[C@H]2C)c1,-11.0,4.0,nt,nt,1.5,0.9%,2.0
O=C(NCCN1CCOCC1)c1noc2c1CCc1ccccc1-2,-1.9,-1.3,3.1,2.6%,-19.1,1.8%[38.3 µM],2.0
CC(C)c1ccccc1OCCNC(=S)NC(=O)c1cccnc1,-4.8,-1.6,4.9,3.4%,-2.5,2.6%,-7.3
CCOc1cc(/C=C(\C#N)C(=O)NCC2CCCO2)ccc1O (stereo unspecified),-1.4,-3.8,-2.2,-12.4%,3.1,-0.8%&-1.0%,-2.8
CC(=O)N1CCN(c2ccc(NC(=O)c3ccccc3Cl)cc2)CC1,8.1,1.8,-4.4,6.2%,8.3,0.7%,8.5
COc1ccc(Nc2nc3ccccc3nc2NS(=O)(=O)c2cccs2)cc1,0.0,3.8,19.0,19.9%,-6.9,-1.0%,7.9
SMILES,D2 ag,Six1-Eya2 inh,TRPV1 potentiator,Sfp PPTase inh,D2 PAM,PINK1 modulator,CtBP-E1A inh
O=C(CSc1nnnn1-c1ccccc1)NCC1(N2CCOCC2)CCCCC1,0.0,-1.3,0.5,nt,-2.0,0.6%,7.9
Cc1cn([C@H]2C[C@H](O)[C@@H](/C=C/C(=O)NCc3cccc4ccccc34)O2)c(=O)[nH]c1=O,-4.4,-3.4,nt,nt,-0.9,-0.1%,3.3
O=C1C(Cl)=C(N2CCN(c3ccccc3[N+](=O)[O-])CC2)C(=O)c2ccccc21,0.3,?,-2.7,-9.0%,-19.5,-2.6%,0.2
Cc1cc(C)nc(SCc2ccc(C(=O)N/N=C/c3cccc(O)c3O)cc2)n1,11.1,-94.8*,7.5,-12.1%,59.4*,0.0%,-96.5*
CCn1nc(NC(=O)C2CCCO2)c2cc3cccc(C)c3nc21 (stereo unspecified),5.7,27.4,-21.1,1.0%,4.1,-0.8%,16.3
CC(=O)Nc1ccc(C(=O)CSc2nnnn2C(C)C)cc1,-0.1,-2.7,2.4,-22.2%,-24.6,0.1%,-2.9
Cc1ccc(SCc2[nH]nc3c2C(c2ccc(C)o2)C(C#N)=C(N)O3)cc1 (stereo unspecified),0.2,-1.9,15.1,?,1.8,7.3%[38.3 µM],-5.6
CCOC(=O)C1CCN(C(=O)CCn2c(=O)oc3ccccc32)CC1,-2.6,4.9,nt,nt,-7.7,0.2%,4.2
Cc1ccccc1Cn1nc(C)c(NC(=O)c2sc3ccccc3c2Cl)c1C,0.5,-5.4,23.0,-53.9%,12.6,-1.0%,-4.6
CN(C)c1nc(N)nc(CSc2n[nH]c(-c3ccccc3)n2)n1,0.9,1.4,7.6,15.8%,-6.8,-0.9%,8.1
